# RanGTP-Imp inh: disruptors of Ran-importin-beta complex formation – biochemical, FRET, CFP-Ran, YFP-importin-beta, homogeneous, primary screen; 300,000 compounds, 1.1% hits; cell-free CFP-Ran/YFP-importin-beta FRET ratio; inhibition, % (concentration not given with the values); AID 2216;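 active = most replicates above 15%; inconclusive = exactly half above 15%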;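 also: 0% = DMSO wells and 100% = Ran loaded with GDP instead of GTP; wells of about 40 µL received 100 nL stock; the first replicate is given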
# MLL AF4-AF9 inh: blocks AF4 peptide binding to human AF9; AlphaScreen, biotin-AF4 peptide binding to FLAG-AF9; AID 651704; inhibition, % at 10 µM; 350,000 compounds, 0.47% hits; P42568;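 active = every replicate reaching a set inhibition limit, whatever the replicate mean, cut at about 25% in these data; inconclusive = mean inhibition reaches that limit but some replicates miss it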;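 also: 0% = plate neutral control median and 100% = total signal loss; the record names both 10 and 1 µM as test concentration; the first replicate is given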
# Target sequence (P42568 whole entry, looked up): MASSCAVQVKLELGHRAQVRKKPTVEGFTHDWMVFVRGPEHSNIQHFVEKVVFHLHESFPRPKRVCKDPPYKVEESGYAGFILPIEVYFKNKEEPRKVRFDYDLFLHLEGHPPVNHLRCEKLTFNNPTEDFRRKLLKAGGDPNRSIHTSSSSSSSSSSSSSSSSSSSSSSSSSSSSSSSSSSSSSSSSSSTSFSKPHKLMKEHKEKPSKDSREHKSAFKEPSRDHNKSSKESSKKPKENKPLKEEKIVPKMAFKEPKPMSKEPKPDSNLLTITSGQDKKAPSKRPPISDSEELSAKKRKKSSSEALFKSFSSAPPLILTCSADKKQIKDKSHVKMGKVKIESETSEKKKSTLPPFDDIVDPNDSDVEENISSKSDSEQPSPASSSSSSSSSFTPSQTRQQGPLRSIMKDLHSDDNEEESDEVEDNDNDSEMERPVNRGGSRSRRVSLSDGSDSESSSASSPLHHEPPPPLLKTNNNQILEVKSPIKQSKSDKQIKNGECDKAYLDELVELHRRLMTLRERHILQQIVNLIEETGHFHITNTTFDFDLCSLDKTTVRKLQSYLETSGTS
# FGF22 binding: binders of recombinant human FGF22 by thermal shift. Q9HCT0. SYPRO orange fluorescence; percent of sucrose octasulfate shift, DMSO zero. calls only at 9.99 µM. 340,000 compounds, 1.5% hits. AID 651658;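 active = melting point raised past a set limit in the mean and every replicate; inconclusive = no clear call; three in four hits are not shown here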
# Target sequence (Q9HCT0 whole entry, looked up): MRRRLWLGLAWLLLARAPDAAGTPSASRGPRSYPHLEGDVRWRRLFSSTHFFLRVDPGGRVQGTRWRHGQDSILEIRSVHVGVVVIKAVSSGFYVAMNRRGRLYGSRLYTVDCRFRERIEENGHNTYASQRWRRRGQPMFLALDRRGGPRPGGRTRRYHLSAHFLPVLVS
# T cruzi inh: blocks replication of Trypanosoma cruzi | T. cruzi beta-gal in NIH3T3, luminescence, 90 h | inhibition, % (test concentration not listed) | 300,000 compounds, 1.4% hits | AID 1885;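 active = mean inhibition across valid replicates above about 55%, limit read from the data; inconclusive = mean below that limit but half or more replicates reach it; inactive = mean below it, under half of replicates reach it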;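 also: signal also drops with host cell toxicity which is not excluded here; 0% = plate median of DMSO wells and 100% = zero luminescence signal; higher percent means less beta-gal luminescence so fewer parasites; stock transfer was 50 nL into about 50 µL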
# Calb FLC: C. albicans growth modulation with fluconazole; C. albicans CaCi-2 (fluconazole-resistant clinical isolate) + fluconazole, Alamar Blue growth, 48 h; 300,000 compounds, 0.57% hits; growth inhibition, % (no concentration beside the values);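 active = most replicates above 75%; inconclusive = exactly half above 75%; inactive = most below 75%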;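 also: all wells also contain fluconazole at 8 µg/ml as a sub-toxic cotreatment; 0% = median of DMSO wells and 100% = median of geldanamycin control wells; wells of about 8 µL received 7.5 nL stock; the first replicate is given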
# rRNA inh HTS: selective bacterial rRNA inhibition in E. coli. E. coli WT GFP vs humanized-ribosome RFP mutants, fluorescence, 24 h; stronger effect = lower value; DMSO median 0, no signal -100. GFP signal change (wild-type ribosome), % (no concentration beside the values). 350,000 compounds, 1.6% hits;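 active = significant combined selectivity score with lowered wild-type GFP, culture density cut under 30%, mutant RFP and density less affected; inactive = any of these conditions unmet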; also: one replicate is shown; some compounds called inactive have numbers as strong as hits
# Beta cell apopt: beta cell apoptosis inhibition; AID 435005; protection from apoptosis, % (concentration not given with the values); 300,000 compounds, 0.8% hits; INS-1E cytokine-induced death, ATP luminescence, 48 h; percent of positive-control rescue, neutral wells zero;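 active = all replicates at 75% or more, or half of them and the mean; inconclusive = half reach 75% but not the mean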;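 also: 0% = cytokine-treated negative control wells and 100% = positive control rescue; higher means more ATP so stronger rescue from cytokine killing; wells of about 40 µL received 100 nL stock; the first replicate is given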
# ALR inh: blocks human ALR sulfhydryl oxidase activity. P55789. purified ALR, DTT oxidation, H2O2 HRP-luminol luminescence. inhibition, % (no concentration beside the values). 290,000 compounds, 3.8% hits;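 active = mean and each replicate at 75% or more; inconclusive = only one of the two met; inactive = neither met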;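 also: stock transfer was 7.5 nL into about 7.5 µL; 0% = neutral wells and 100% = wells with inactivated enzyme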
# Target sequence (P55789 whole entry, looked up): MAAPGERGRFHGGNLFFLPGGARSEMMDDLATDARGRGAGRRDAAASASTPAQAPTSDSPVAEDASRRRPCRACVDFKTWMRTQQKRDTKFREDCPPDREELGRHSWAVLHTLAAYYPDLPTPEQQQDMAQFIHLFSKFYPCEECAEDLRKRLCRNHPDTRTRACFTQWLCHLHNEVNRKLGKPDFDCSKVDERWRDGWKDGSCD
# rRNA inh HTS OD600: second read-out of rRNA inh HTS, no call of its own (marks repeat the call); OD600 change, %; measured here: OD600 growth;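 optical density of the mix in the first replicate; 0 = DMSO median and -100 = no signal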
# rRNA inh HTS RFP: second read-out of rRNA inh HTS, no call of its own (marks repeat the call); RFP signal change, %; measured here: RFP humanized mutant strains;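 first replicate; 0 = DMSO median and -100 = no signal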
# * = called active by the depositor; i = inactive; ? = inconclusive; . = not tested or not shown. Not all compounds are listed; the hit share may differ from the screen's.
no.	Compound	RanGTP-Imp inh	MLL AF4-AF9 inh	FGF22 binding	T cruzi inh	Calb FLC	rRNA inh HTS	rRNA inh HTS OD600	rRNA inh HTS RFP	Beta cell apopt	ALR inh
1	Cc1nn(-c2ccccc2)c(N2CCCC2)c1/C=N/NC(=O)c1cc(-c2ccccc2)nc2ccccc12	?	3.7	i	63*	2	.	.	.	9	.
2	Cc1ccc(N2C(=O)C(O)(C(F)(F)F)C3=C2CC(C)(C)CC3=O)cc1C (stereo not drawn)	-0.1	-1.3	i	6	-8	-19	-14	18	1	0
3	COc1ccc(-n2c(C)cc(C(=O)CN3CCC(C)CC3)c2C)cc1	-3.0	4.3	i	51	-21	-7	-5	-1.4	-2	.
4	Cc1cc(C)nc(Sc2c(C)n[nH]c2C)n1	-1.7	3.7	i	1	3	19	18	9.7	-1	3
5	Cc1ccc(N2C(=O)CC(N3CCN(C4CCc5ccccc5C4)CC3)C2=O)cc1 (stereo not drawn)	-1.0	.	.	18	1	.	.	.	-7	-15
6	Cn1c(=O)n(C)c2cc(C(=O)c3ccccc3)ccc21	0.3	.	.	6	-10	.	.	.	-13	-7
7	Cc1[nH]c(C)c(S(=O)(=O)N(Cc2ccccc2)C(C)C)c1C(=O)N1CCCC1	6.7	7.2	i	2	-18	8	0	-2.1	-3	-6
8	O=C(CCCn1nnnc1CN1CCOCC1)N1CCC(c2ccccc2F)C1 (stereo not drawn)	6.6	3.9	i	-10	-9	3	6	-2.0	.	.
9	O=C(Cc1cnc2ncnn2c1)N1CCc2c([nH]c3ccccc23)C1c1ccccn1 (stereo not drawn)	-0.7	1.0	i	7	-9	4	-5	0.4	-3	-4
10	CCCC(C(=O)NC(C)(C)CC)N(Cc1ccco1)C(=O)CNS(=O)(=O)c1ccccc1 (stereo not drawn)	-1.9	12	i	16	-2	-5	-4	2.9	1	1
11	CS(=O)(=O)c1ccc(Cl)c(C(=O)NCC2CCCCC2)c1	?	-4.4	i	1	.	1	-7	-0.3	0	-12
12	Cc1cnc(C(=O)N2CCCC(C(=O)c3ccc(Cl)cc3C)C2)cn1 (stereo not drawn)	5.2	-3.4	i	-2	-7	-3	5	-1.9	-10	0
13	O=c1c2cc3c(nc2[nH]c(=S)n1-c1ccccc1)CCCC3	0.9	-2.5	i	-3	-11	4	10	-1.7	.	.
14	Cc1ccc(C(=O)NC(=S)NCc2cccnc2)cc1	1.2	0.7	i	14	15	-24	-24	5.9	-3	25
15	Cc1ccc(S(=O)(=O)N2CCN(C(=O)Cn3c(=O)oc4ccccc43)CC2)c(C)c1	.	0.4	i	.	.	4	-4	3.4	-1	-20
16	CCOc1ccc(Nc2ccc([N+](=O)[O-])c3nonc23)cc1	-6.6	29*	i	-5	71	-16	0	0.4	31	19
17	CC(C)(C)n1nnnc1C(c1cccnc1)N(Cc1ccccc1)Cc1cccs1 (stereo not drawn)	0.4	.	.	20	5	.	.	.	11	-4
18	CCC(C)(C)n1nnnc1C(c1cc2cc(C)cc(C)c2[nH]c1=O)N1CCN(C(=O)c2ccco2)CC1 (stereo not drawn)	-0.8	.	.	-39	12	5	2	3.1	0	3
19	N#C/C(=C\c1ccc2c(c1)OCCO2)C(=O)Nc1ccc(C(=O)O)cc1	-6.8	-1.7	i	-14	-4	5	4	3.2	0	.
20	CCOC(=O)c1c(-c2ccc(C)cc2)csc1NC(=O)c1ccc(N2C(=O)CCC2=O)cc1	4.2	-3.0	i	-3	9	25	20	-1.9	-7	7
21	COc1ccccc1-c1n[nH]c(=S)n1-c1ccccc1	-0.3	.	.	-4	10	.	.	.	2	93*
22	CCn1c(/C=C/c2c(C)n(CC)c3ccccc23)nc2ccccc2c1=O	1.8	-17	i	4	-33	4	4	-0.8	-1	-5
23	Cc1cc(NC(=O)COc2ccc3ccccc3c2Br)no1	.	-0.9	i	.	.	-1	0	-0.2	3	-16
24	O=C(Nc1ccccc1N1CCOCC1)c1cc(Br)c(Br)s1	1.8	0.2	i	1	-1	12	1	1.9	0	.
25	COc1ccc(C(=O)NCc2ccc3c(c2)cc(C)n3C)cc1OC	-0.5	2.1	i	8	1	4	8	62	-2	-6
26	CCCn1cc(CN2CCCC(C(=O)c3cccc(OC(C)C)c3)C2)c(C)n1 (stereo not drawn)	2.9	0.9	i	?	-12	13	-1	-1.5	1	-10
27	CNC(=O)[C@@H]1CCC(=O)N1	.	.	i	.	.	17	6	0.5	-4	2
28	COCCNC(=O)C(c1cccc(OC)c1)N(Cc1cccs1)C(=O)Cn1nnc2ccccc21 (stereo not drawn)	-2.1	.	.	1	-1	.	.	.	-1	-13
29	Cc1ccccc1COc1ccc2oc(C)c(C(=O)O)c2c1	?	-19	i	2	4	-10	-1	1.2	-2	.
30	COc1ccc(C(=O)Nc2ccc(S(=O)(=O)Nc3onc(C)c3C)cc2)c(OC)c1	?	0.2	i	-2	2	-16	-16	-7.7	-3	7

# Results in sequence from the list:
# T cruzi inh for nos. 18 to 26, in order: -39, -14, -3, -4, 4, ., 1, 8, ?

# Structures above marked active in ALR inh:
entry | Compound | RanGTP-Imp inh | MLL AF4-AF9 inh | FGF22 binding | rRNA inh HTS | rRNA inh HTS OD600 | rRNA inh HTS RFP | ALR inh
21 | COc1ccccc1-c1n[nH]c(=S)n1-c1ccccc1 | -0.3 | . | . | . | . | . | 93*

# Next compounds
no.	Compound	RanGTP-Imp inh	MLL AF4-AF9 inh	FGF22 binding	T cruzi inh	Calb FLC	rRNA inh HTS	rRNA inh HTS OD600	rRNA inh HTS RFP	Beta cell apopt	ALR inh
31	O=C1c2ccccc2C(=O)N1CCc1csc(-c2cccc(F)c2)n1	-2.8	.	.	-5	8	.	.	.	.	0
32	CCOC(=O)Cn1nc(C)c([N+](=O)[O-])c1C	2.1	-2.3	i	3	-5	9	1	-5.6	-1	2
33	OCC[C@@H]1C[C@H](O)[C@@H](O)[C@]2(Cc3ccccc3CO2)O1	5.2	-2.0	i	-5	-5	7	12	4.2	-9	2
34	CC/C(=N\O)C(C)(C)/[N+]([O-])=C/c1ccc(Br)cc1	0.9	.	.	-5	-12	.	.	.	-4	0
35	CNC(=O)COc1cccc(C(=O)NCc2ccccc2)c1	2.7	.	.	-4	7	.	.	.	4	2
36	CCn1cc2nc(SCC(=O)Nc3ccccc3F)n(Cc3ccccc3)c(=O)c2n1	4.7	-0.8	i	24	-3	-10	-15	7.2	-1	-15
37	Cc1ccc(CSCCNC(=O)c2ccc(C)cc2)cc1	4.6	-0.6	i	-2	-16	-1	6	-1.8	-3	-5
38	Cc1ccc(OCC(=O)NN=C2C3CC4CC(C3)CC2C4)cc1	.	-4.2	i	.	.	4	8	1.5	-3	.
39	O=C(COC(=O)C1CC(=O)N(Cc2ccccc2)C1)Nc1ccccc1F (stereo not drawn)	3.3	-1.2	i	-11	-11	15	6	3.8	-1	.
40	Cc1c(Cl)cnc(NC(=O)COC(=O)c2ccc(S(=O)(=O)NCc3ccco3)cc2)c1Cl	0.7	-4.2	i	-21	-11	8	6	1.0	-5	0
41	Cn1nnnc1SCC(=O)NCc1cc([N+](=O)[O-])ccc1O	2.6	-0.1	i	-5	-19	10	3	-0.8	-3	2
42	CC1CCN(C(c2ccc(N(C)C)cc2)c2nnnn2C(C)(C)C)CC1 (stereo not drawn)	-20	.	.	0	22	.	.	.	-2	.
43	COCCNS(=O)(=O)c1cc(Br)ccc1OC	?	.	.	0	-5	.	.	.	-7	-8
44	O=C(Cc1coc2ccc3ccccc3c12)Nc1nccs1	-2.1	.	.	6	-4	.	.	.	6	-15
45	CCCCCCCCCC(=O)NNC(=O)c1c(O)c2ccccc2n(CC)c1=O	-1.0	-1.5	i	-7	113*	4	19	1.4	11	-5
46	CCOc1ccc(-n2cc(C(=O)Nc3cccc(OC)c3)c3cc(OC)c(OC)cc3c2=O)cc1	0.9	.	.	41	-9	.	.	.	5	-2
47	O=C(O)c1ccccc1C1=Nc2ccc(O)cc2Oc2cc(O)ccc21	-6.5	.	.	4	-7	.	.	.	6	54
48	O=C1Nc2cccnc2N(C(=O)CCl)c2ccccc21	1.5	0.9	i	2	1	4	8	0.6	-15	-24
49	Cc1ccc2nc(-c3ccc(NC(=O)c4ccco4)cc3)[nH]c2c1	-1.8	1.1	i	4	25	-57	-76	-37	9	0
50	CCCOc1ccc(N2CC(C(=O)NC(C)C)CC2=O)cc1 (stereo not drawn)	3.0	.	.	2	-4	.	.	.	-1	-9
51	COC(C(=O)Nc1cccc(F)c1)c1ccccc1 (stereo not drawn)	-1.0	.	.	.	-4	.	.	.	-7	-1
52	Cc1cc(NCCC(C)C)n2nc(C)c(-c3ccccc3)c2n1	-3.4	.	.	42	45	.	.	.	15	0
53	O=C(CSc1nc2nc3c(cc2c(=O)n1-c1ccccc1)CCCC3)Nc1ccccc1	2.7	.	.	14	4	.	.	.	3	-1
54	CC(=O)/C(N=Nc1cccc(C(F)(F)F)c1)=C(\C)O	-1.4	0.0	.	0	15	10	12	0.8	-4	13
55	CCCCC(CC)CNC(=O)C(=O)c1ccccc1NC(C)=O (stereo not drawn)	3.4	.	.	-12	20	.	.	.	-1	0
56	CCCCCN(C(=O)CCC(=O)OCc1cccc(C)c1)c1c(N)n(CCCC)c(=O)[nH]c1=O	0.2	-2.1	i	5	3	-2	4	-1.5	0	-2
57	O=C(Oc1ccc(N(Cc2cccs2)C2=NS(=O)(=O)c3ccccc32)cc1)c1ccccc1Cl	1.5	.	.	31	0	.	.	.	4	-4
58	CCCNC(=O)c1ccccc1NC(=O)COc1ccc(OC)cc1	3.0	.	.	.	16	.	.	.	-8	-4
59	COc1ccc(/C=N/NC(=O)C(C)n2cnc3ccccc3c2=O)cc1 (stereo not drawn)	1.0	.	.	-13	2	.	.	.	-6	-1
60	COc1ccc(CNC(=O)CCN2C(=O)c3ccncc3C2=O)cc1OC	1.5	1.9	i	1	-9	11	0	-1.1	-8	3
61	CCOC(=O)c1nn(-c2ccccc2)c2nc(Nc3ccccc3)cc(=O)n12	6.4	.	.	9	24	.	.	.	1	-18

# Single records, from the list above. Order of screens: RanGTP-Imp inh, MLL AF4-AF9 inh, FGF22 binding, T cruzi inh, Calb FLC, rRNA inh HTS, rRNA inh HTS OD600, rRNA inh HTS RFP, Beta cell apopt, ALR inh
# Entry for Cc1ccc2nc(-c3ccc(NC(=O)c4ccco4)cc3)[nH]c2c1 : -1.8, 1.1, i, 4, 25, -57, -76, -37, 9, 0
# Entry for COc1ccc(/C=N/NC(=O)C(C)n2cnc3ccccc3c2=O)cc1 (stereo not drawn) : 1.0, ., ., -13, 2, ., ., ., -6, -1
# Entry for CCOc1ccc(-n2cc(C(=O)Nc3cccc(OC)c3)c3cc(OC)c(OC)cc3c2=O)cc1 : 0.9, ., ., 41, -9, ., ., ., 5, -2
# Entry for CCCOc1ccc(N2CC(C(=O)NC(C)C)CC2=O)cc1 (stereo not drawn) : 3.0, ., ., 2, -4, ., ., ., -1, -9

# Source: PubChem
